# Bioassay records as filed in PubChem BioAssay.
# fixLJ activator – activators of Burkholderia fixLJ two-component system. B. multivorans fixK-promoter GFP reporter, 18 h; hits give high values. z-score (no concentration beside the values). 29,000 compounds, 0.3% hits;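 active = replicate mean overnight rise in green fluorescent reporter signal, 3 or more SD over negative controls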;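 also: score is relative to vehicle wells of the plate; 300 nL library stock went into each well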
# Starred values were filed as active, the others as inactive; & = joins results of further samples. This is a subset. The share of hits here may be higher or lower than overall.
SMILES,fixLJ activator
CC(C)Cc1cc(C(=O)N2CCC3(CC2)c2nc[nH]c2CCN3C)n(C)n1,-0.33
CC(C)OCCCNc1sc(S(=O)(=O)c2ccccc2)nc1S(=O)(=O)c1ccc(Cl)cc1,1.47
O=C(Cc1ccc(Cl)cc1)Nc1ccc2nn(-c3ccccc3)nc2c1,-1.17
Cc1ccc2occ(CC(=O)Nc3c(C(=O)Nc4ccc(Cl)cc4)oc4ccccc34)c2c1,-1.65
COc1ccc(-c2nnc(SC(C)C(=O)O)o2)cc1 (stereo unspecified),0.59
CCOc1ccc(NC(=O)CSc2c3c(nc4ccccc24)CCCC3)cc1,-0.97
COc1cccc(-c2cc(C(F)(F)F)nc(-n3nc(C)c(Br)c3C)n2)c1,1.69
COc1ccc(NC(=O)[C@H](Cc2ccccc2)N2Cc3ccccc3C2=O)cc1OC,-1.87
Cc1ccc2[nH]cc(S(=O)(=O)c3ccc(C)c(C)c3)c(=O)c2c1,-2.14
O=C(CCC(F)(F)F)N1CCC[C@]2(C1)CN(C1CCOCC1)CCC2O (stereo partly specified),0.24
CCN(CC)C(=S)SSC(=S)N(CC)CC,-3.06&-4.58
COc1ccc(Br)cc1C(=O)Nc1ccc(-c2nc3ncccc3o2)cc1C,-1.22
COc1cc(C(=O)NC(c2ccc3c(c2)CCO3)C2CC(O)C2)ccc1F (stereo unspecified),-3.52
Cc1cc(C(=O)N2CCCN(c3ncc(C(F)(F)F)cc3Cl)CC2)no1,0.13
COc1ccc(-n2c(=O)c3c(C)c(C)sc3n(Cc3ccc(F)cc3)c2=O)c(OC)c1,-0.49
Cc1ccc(Nc2c3c(nc4nncn24)CCC3)cc1C,-1.3
COc1cc(CN(Cc2cc(-c3ccncc3)no2)C2CC2)ccc1O,-1.62
O=c1n(Cc2ccccc2)nc2n1-c1ccccc1OC2,0.11
CC(C)CCn1c(=O)c2cccnc2n(CC(=O)Nc2ccc(F)cc2)c1=O,-2.92
COc1ccc(-c2c3c(=O)n(C)c(=O)n(C)c3cn2-c2cccc(N)c2)cc1,-1.05
CCCc1nc2ccccc2n2c(-c3cccc(C)c3)c3c(=O)n(C)c(=O)n(C)c3c12,-1.63
COc1ccc(/C=C/C(=O)Nc2ccc(C)cc2)cc1,-0.87
CCc1cccc(NC(=O)C2CCN(S(=O)(=O)c3ccc(Br)s3)CC2)c1,1.16
CCOc1cc(C)c(Cl)cc1S(=O)(=O)N1CCC(CO)CC1,0.01
CCOc1ccc(C(=O)c2cn(CC(=O)Nc3cc(OC)ccc3OC)c3cc(OC)c(OC)cc3c2=O)cc1,0.04

# Four structures from above, ordered by SMILES length, ascending:
SMILES,fixLJ activator
O=c1n(Cc2ccccc2)nc2n1-c1ccccc1OC2,0.11
COc1cc(CN(Cc2cc(-c3ccncc3)no2)C2CC2)ccc1O,-1.62
CCOc1ccc(NC(=O)CSc2c3c(nc4ccccc24)CCCC3)cc1,-0.97
COc1ccc(NC(=O)[C@H](Cc2ccccc2)N2Cc3ccccc3C2=O)cc1OC,-1.87

# Compounds shown so far that contain bromine, in the order listed:
SMILES,fixLJ activator
COc1cccc(-c2cc(C(F)(F)F)nc(-n3nc(C)c(Br)c3C)n2)c1,1.69
COc1ccc(Br)cc1C(=O)Nc1ccc(-c2nc3ncccc3o2)cc1C,-1.22
CCc1cccc(NC(=O)C2CCN(S(=O)(=O)c3ccc(Br)s3)CC2)c1,1.16

# Quoted at random: 2 entries already listed
SMILES,fixLJ activator
COc1ccc(-c2nnc(SC(C)C(=O)O)o2)cc1 (stereo unspecified),0.59
Cc1ccc2[nH]cc(S(=O)(=O)c3ccc(C)c(C)c3)c(=O)c2c1,-2.14

# More structures.
SMILES,fixLJ activator
CCOc1ccc(-n2nc3ccc(NC(=O)c4ccc(-c5cccc(Cl)c5)o4)cc3n2)cc1,-2.18
O=S(=O)(c1ccccc1)c1nc(-c2cccs2)oc1N1CCCCC1,-1.04
CCOc1c(Cl)cc(C(=O)N(Cc2ccc(N(C)C)cc2)Cc2ccco2)cc1Cl,0.29
CCNC(=O)[C@@]1(Cc2cscn2)CC2CCC1N2c1nnc(-c2ccccc2)s1 (stereo partly specified),-0.34
CCn1c(C(=O)NCc2cc(Br)ccc2OC)cc2oc3ccccc3c21,0.02
CCCN(CCC)C(=O)C1CCN(c2cc(C)nc3c(-c4ccc(Cl)cc4)c(C)nn23)CC1,-1.04
O=c1c2ccccc2n(Cc2cccc(Cl)c2)c(=O)n1Cc1ccccc1,1.71
COc1ccc(N(C(=O)c2ccccc2C)S(=O)(=O)c2ccc(Cl)cc2)cc1,3.02
CCOc1ccccc1C(=O)N(Cc1ccco1)Cc1ccccc1F,-0.82
Cc1ccc(C(=O)c2c(N)c(C(=O)Nc3cccc(C(F)(F)F)c3)c3ccccn23)cc1,-2.15
COc1ccc2occ(CC(=O)Nc3ccc(S(=O)(=O)Nc4nc(C)cc(C)n4)cc3)c2c1,0.13
Cc1cccc(Cc2c(C)nc3nc(SCC(=O)NCc4ccccc4)nn3c2C)c1,-2.29
Cc1cccc(N2CCN(C(c3ccccc3)c3nnc(-c4ccccc4F)o3)CC2)c1C (stereo unspecified),0.17
Cc1cccc(CNC(=O)C(=O)Nc2ccccc2C)c1,-2.86
CCc1ccc(Cn2nnc(C(=O)Nc3ccc(C)cc3)c2N)cc1,0.19
COc1ccccc1CNC(=O)CCc1c(C)nc2c(c(C)nn2-c2ccc(C)c(C)c2)c1C,-1.33
CC1NC(=O)N(c2ccccc2NC(=O)CCc2ccc(F)cc2)C1=O (stereo unspecified),1.23
Cc1cc(F)ccc1Nc1nc2ccccc2n2nnnc12,1.5
CC(C)(C)C(=O)NC1CCOCC1Oc1ccc(C(N)=O)cc1 (stereo unspecified),-2.63
Nc1c(C(=O)Nc2ccc(Cl)c(C(F)(F)F)c2)sc2nc3c(cc12)N1CCC3CC1,-1.78
COc1ccc(C)cc1NC(=O)NCc1nncn1C1CCCCC1,0.34
COc1ccc(C)cc1NC(=O)C1CCCN(S(=O)(=O)c2ccc3c(c2)oc(=O)n3C)C1 (stereo unspecified),-0.7
COc1ccc(C(=O)Nc2cc(-c3nc4ccccc4s3)ccc2OC)cc1,0.46
COc1cc(-c2nc3cccc(C)n3c2Nc2ccc3c(c2)OCCO3)ccc1O,-2.95
CCN1CCC(C(=O)N2CCC3OCc4cnnn4C3C2)CC1 (stereo unspecified),-0.93

# Further compounds follow:
SMILES,fixLJ activator
CCc1ccc(CNC(=O)c2cc(-c3ccc(Cl)s3)nc3ccccc23)cc1,-0.52
COc1cc2c(cc1OC)C1(CCN(C(=O)c3cnc[nH]3)CC1)OCC2,-0.13
O=C(CCSc1ccc2c(c1)OCCO2)N1CC(O)C(Cc2ccccn2)C1 (stereo unspecified),-0.77
Cc1cc(=O)n2nc(N3CCC(C(=O)NCc4ccc(Cl)cc4)CC3)sc2n1,-2.88
CNNCc1ccc(C(=O)NC(C)C)cc1,-1.35
CCN(CC)S(=O)(=O)c1ccc2c(c1)N(CC(=O)Nc1c(C)cccc1C)C(=O)CO2,-0.65
COc1cc(C(=O)CC2(O)C(=O)N(Cc3ccccc3Cl)c3ccccc32)cc(OC)c1OC (stereo unspecified),-0.63
CCc1ccc(NC(=O)CCNC(=O)Cn2cnc3ccccc3c2=O)cc1,0.09
O=C(Nc1cc(C(F)(F)F)ccc1Cl)c1noc2c1CCCCC2,0
CCOc1ccccc1NC(=O)N1CCN(C)c2ncccc21,0.78
Cc1ccc(CCNC(=O)C2CCCN(S(=O)(=O)c3ccc4c(c3)oc(=O)n4C)C2)cc1 (stereo unspecified),0.08
CN(C)C(=O)c1ccc(NC2COCC2Cc2ccncc2)nc1 (stereo unspecified),-2.34
COc1ccc(N2CCN(C(=O)c3cc4c(=O)oc5ccc(C)cc5c4s3)CC2)cc1,-0.78
COc1ccccc1OCCCn1c(C2CC(=O)N(c3ccccc3Cl)C2)nc2ccccc21 (stereo unspecified),-3.37
O=C(Oc1ccc(F)cc1)c1nc(SCc2ccc(F)cc2)ncc1Cl,0.04
CCOC(=O)N1CCN(C(=O)Cn2ncc3c4ccccc4n(Cc4ccc(F)cc4)c3c2=O)CC1,-2.23
CC(C)CCSc1nc2c(c(=O)n(C)c(=O)n2C)n1Cc1ccccc1Cl,-0.85
COc1ccccc1-c1ncnn1-c1sc2c(c1C#N)CCCCC2,-1.45
Cc1ccc(C(=O)COC(=O)c2cc(-c3cccs3)nc3ccccc23)cc1,-3.33
NC(=O)CN1CCOc2c(O)cc(-c3nc4ccccc4s3)cc2C1,-0.68
O=C(c1ccc(C(=O)N2CC(O)C(Cc3cnccn3)C2)cc1)N1CCOCC1 (stereo unspecified),0.25
COc1c[nH]c(CN(C)Cc2cc3cc(F)ccc3[nH]2)cc1=O,-0.49
Cc1cnc(C(=O)NCCc2ccc(S(=O)(=O)NC(=O)NC3CCCCC3)cc2)cn1,-2.07&-0.65
CCOC(=O)c1c(-c2ccc(OC)cc2)oc2ccc(OCc3ccc(F)cc3F)cc12,-0.52
CCOC(=O)c1ccc(NC(=O)c2cc3sccc3n2Cc2ccc(Cl)cc2)cc1,-0.02

# (continued)
SMILES,fixLJ activator
COc1ccc2cc([C@H](C)CO)ccc2c1,-0.76
CCOc1ccccc1NC(=O)C1CCN(S(=O)(=O)c2c(C)noc2/C=C/c2ccco2)CC1,-0.93
CC(=O)NCCNc1nc(-c2ccncc2)nc2c1c(C)nn2C,0.68
Cc1cc(C)cc(Nc2cc(C(=O)NCCCN(C)C3CCCCC3)c3ccccc3n2)c1,-2.45
O=C(Nc1ccc(OC(F)(F)F)cc1)c1cc(-c2ccc(Cl)cc2)on1,-1.3
CCc1ccc(CN(C)C(=O)CSc2nncn2C)nc1,-1.68
CCCCOc1ccc(C2c3c(oc4ccccc4c3=O)C(=O)N2c2nc(C)c(C(=O)OCC)s2)cc1OC (stereo unspecified),-0.91
Cc1ccc(Cl)cc1-n1c(CCC(=O)O)ccc1-c1cccs1,-2.18
Cc1ccc(OCCSc2nc(C)c(Cc3ccccc3)c(=O)[nH]2)cc1,-0.96
CCCc1cc(C(=O)Nc2c(C)nn(Cc3c(Cl)cccc3Cl)c2C)no1,-0.92
Cc1ccccc1NC(=O)C(=O)NCC1(c2ccccc2)CCCC1,0.41
Nc1nc(CCCNC(=O)c2ccc(-c3ccn[nH]3)cc2)cs1,-1.44
CCC(C)NC(=O)c1ccccc1NC(=O)CN1C(=O)c2cccc3cccc1c23 (stereo unspecified),-2.66
COc1ccc(C)cc1Nc1nc2cc(Cl)c(Cl)cc2nc1-n1nc(C)cc1C,-1.7
COc1ccc2c(C)c(CCC(=O)NCCc3ccccc3OC)c(=O)oc2c1,-1.28
Cc1cc(C)c(Cn2c3ccccc3c3cnn(CC(=O)NCC(C)c4ccccc4)c(=O)c32)c(C)c1 (stereo unspecified),-1.53
COc1ccc(C(=O)N2CCC(n3cc(C(C)(C)C)nn3)CC2)c(OC)n1,-0.79
CC(=O)N1CCOC(CNC(=O)c2ccc(SCCO)cc2)C1 (stereo unspecified),-0.62
CNc1ccnc(N2CCC(N3CCCC(C(=O)NC4CC4)C3)CC2)n1 (stereo unspecified),-0.01
O=C(Cn1c(=O)n(Cc2ccco2)c(=O)c2ccccc21)Nc1cccc(F)c1,0.17
Cc1ccc(NC(=O)CN2C(=O)C(c3ccc(F)cc3)=NC2(C)C)c(C)c1,-0.19
Cc1ccc(C)c(N2CCN(c3nc4ccccc4c4nc(-c5cccnc5)nn34)CC2)c1,-1.71
Cc1cccc(C)c1NC(=O)C1CCN(S(=O)(=O)c2cccc3nsnc23)CC1,-0.57
C=CCC(CC=C)(CNC(=O)C(=O)Nc1ccc(C)cc1)c1ccccc1,0.23
CNC(=O)C1(NC(=O)Nc2ccc(-n3ccnc3)c(Cl)c2)CCCCC1,-1.15

# The list goes on.
SMILES,fixLJ activator
CCC(=O)N1CCC2(CC1)CN(c1nnc(-c3ccccc3)s1)CCO2,-0.05
NC(=O)c1cccnc1N1CCC(n2cc(-c3cccc(Cl)c3)nn2)CC1,-1.21
Cc1ccccc1C(=O)Nc1sc2c(c1C(=O)N1CCC(C)CC1)CCCC2,-0.79
Cc1ccc(NC(=O)CSc2nc3c(oc4ccccc43)c(=O)n2Cc2ccco2)cc1F,0.58
CCC12CN3CC(C)(CN(C1)C3c1c(C)[nH]c3ccccc13)C2=O (stereo unspecified),-1.16
O=C(O)c1cccc(-n2cnc3cccnc32)c1,-0.37
CC(C)c1nnc(CN2CCC3(CCC(=O)N(CC4CC4)C3)CC2)o1,-0.56
CCOc1ccc(CN(C(=O)c2cc(=O)c3cc(Cl)ccc3o2)C2CCS(=O)(=O)C2)cc1 (stereo unspecified),0.95
COc1ccc(-n2nnnc2C2CCN(S(=O)(=O)c3ccc(F)cc3Cl)CC2)cc1,-2.06
Cc1ccccc1NC(=O)c1c(NC(=O)Cc2ccccc2)sc2c1CCC2,-1.24
CCc1ccc(CNC(=O)c2cc3cc4ccc(OC)cc4nc3o2)cc1,-0.74
CC(C)(C)c1ccc(CN2CC3CCC(C2)C3NC(=O)c2csc(N)n2)cc1 (stereo unspecified),1.82
CCCN(C)C(=O)c1coc(CN2CCN(c3ncccn3)CC2)n1,1.51
CCCCn1c2ccc(F)cc2c2nnc(SCCN3CCCCC3)nc21,-0.17
CNC(=O)c1cccc(NC(=O)CCCc2cccs2)c1C,-1.26
CC(C)c1ncc(CN2CC3c4ccccc4OC[C@]3(C(=O)O)C2)cn1 (stereo partly specified),0.59
Cc1ccc(C)c(N2CCN(C(=O)CCS(=O)(=O)c3cc(Br)cc4c3N(C(=O)C3CC3)CC4)CC2)c1,-1.45
CCc1ccc(S(=O)(=O)c2cn(Cc3ccccc3)c3cc(F)c(F)cc3c2=O)cc1,-1.11
Cc1cc(CC2CN(C(=O)c3ccccc3-c3ccccc3F)CC2O)on1 (stereo unspecified),-0.09
O=C(CCCc1c[nH]c2ccccc12)NCCc1nc(C2CC2)no1,-0.6
Cc1ccc(C2CC(=O)n3nc(-c4cccc(C)c4)nc3S2)cc1 (stereo unspecified),-1.02
Clc1ccc(CCNc2nc3ccccc3c3nc(-c4ccccc4)nn23)cc1,-0.93
CN(C1CCCCC1)S(=O)(=O)c1ccc2c(c1)c(=O)c(C(=O)NCCc1ccccc1)cn2C,-1.65
COc1cc(OC)c(N(C)C(=O)c2cn(C3CCCC3)c(=O)c3c2c2ccccc2n3C)cc1Cl,-0.52
COC(=O)N1CCCCC1C(=O)N1CCc2ccc(OC)cc2CC1 (stereo unspecified),-0.42
